Six1-Eya2 inh: Six1/Eya2 interaction inhibition. AID 651725. Q15475+O00167. activity change, % (no concentration beside the values). AlphaScreen GST-Six1/His-Eya2 binding, biochemical; active compounds read low; control for the full effect not named in the record. hit rate 0.56% among 360,000; in the data active = activity change below about -65%; inconclusive = about -30% to -65%; inactive = above about -30%; note: % is set by controls: 0 for no effect and ±100 for the full control effect
Target sequence (O00167 whole entry, looked up): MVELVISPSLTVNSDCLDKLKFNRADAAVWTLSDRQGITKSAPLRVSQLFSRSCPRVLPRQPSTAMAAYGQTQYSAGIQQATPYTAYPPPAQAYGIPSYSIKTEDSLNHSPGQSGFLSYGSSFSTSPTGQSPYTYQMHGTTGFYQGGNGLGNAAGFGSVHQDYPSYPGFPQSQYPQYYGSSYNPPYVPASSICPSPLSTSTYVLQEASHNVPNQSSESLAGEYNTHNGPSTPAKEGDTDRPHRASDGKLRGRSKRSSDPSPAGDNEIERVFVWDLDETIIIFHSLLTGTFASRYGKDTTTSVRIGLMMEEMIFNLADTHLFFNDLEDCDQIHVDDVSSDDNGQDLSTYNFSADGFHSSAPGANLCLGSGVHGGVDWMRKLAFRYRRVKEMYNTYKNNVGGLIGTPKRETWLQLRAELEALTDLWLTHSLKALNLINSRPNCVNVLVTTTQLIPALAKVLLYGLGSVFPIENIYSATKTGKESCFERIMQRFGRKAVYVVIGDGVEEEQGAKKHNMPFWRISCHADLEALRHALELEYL
Target sequence (Q15475 whole entry, looked up): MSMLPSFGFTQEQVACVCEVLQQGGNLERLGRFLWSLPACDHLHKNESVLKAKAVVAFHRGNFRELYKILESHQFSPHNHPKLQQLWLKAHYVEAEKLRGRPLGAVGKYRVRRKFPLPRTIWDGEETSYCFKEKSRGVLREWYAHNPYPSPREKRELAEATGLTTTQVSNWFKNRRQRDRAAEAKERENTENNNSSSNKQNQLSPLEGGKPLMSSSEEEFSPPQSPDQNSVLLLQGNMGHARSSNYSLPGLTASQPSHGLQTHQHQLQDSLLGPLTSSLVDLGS
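Six1/Eya2 binding was read as AlphaScreen signal after compounds were pinned into GST-Six1 plus His-tagged Eya2 (5X stock 250/500 nM) in pH 8.0 Tris/NaCl/TCEP buffer, beads added, then incubated 1 h, 37 C, dark.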
TRPML1 inh: inhibitors of human TRPML1 channel; activity change, negative = inhibition, % (concentration not given with the values); TRPML1-inducible cells, Ca2+ dye fluorescence, FDSS; active compounds read low; inhibition of EC80 agonist-evoked calcium signal; hit rate 0.02% among 390,000; Q9GZU1; in the data active means activity change below about -50%; inconclusive means about -30% to -50%; inactive means above about -30%;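 note: stimulus is agonist 54-4 at its EC80 concentration; % is set by controls: 0 for no effect and ±100 for the full control effect; the text of the record puts the active cut at -80%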
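TRPML1-DL cells, Tet-induced overnight (~16 h, 37 °C) at 1,500 cells/well, were loaded with Ca8 no-wash dye plus quencher for 45-90 min at room temperature. Compounds were pinned during FDSS kinetic reading; agonist 54-4 at EC80 (4 uM final) then added.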
TRPV1 PAM: human TRPV1 potentiation. Q8NER1. TRPV1-expressing cells, Fluo-8 calcium influx, capsaicin EC20 potentiation; host cell line not named in the record; control for the full effect not named in the record. potentiation, % at 8.33 µM. hit rate 0.02% among 320,000. AID 540277; active means potentiation above 80%; inconclusive means 30% to 80%; inactive means below 30%; note: 0% is about no effect
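TRPV1-expressing cells were cultured overnight at 35.5C and loaded with Fluo-8 calcium dye for 40 to 90 min at room temperature. After a 10 s baseline, compound was added and calcium influx was read kinetically for 3 min (ex 480/em 520 nm).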
TRPML1 ag: human mucolipin-1 channel agonism. AID 624414. TRPML1-expressing cells, Ca2+ dye fluorescence, FDSS; host cell line not named in the record; reference of the full effect not given here. hit rate 0.12% among 410,000. activation, % (no concentration beside the values). Q9GZU1; in the data active = activation above about 50%; inconclusive = about 30% to 50%; inactive = below about 30%; note: 0% is about no effect; the text of the record puts the active cut at 80%
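Calcium fluorescence on an FDSS kinetic reader gave the read-out. Tet-induced TRPML1-DL cells were plated overnight, dye-loaded (Ca8 with quencher, 45-90 min, room temperature, dark), then read 110 s after compound addition, and again 110 s after 4uM final 54-4 (EC80).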
CtBP-E1A blk: inhibitors of CtBP/E1A interaction; AlphaScreen GST-E1A/His-CtBP binding, 1536-well; active compounds read low; control for the full effect not named in the record; activity change, % (concentration not given with the values); hit rate 0.49% among 340,000; AID 651724; in the data active means activity change below about -65%; inconclusive means about -30% to -65%; inactive means above about -30%; note: % is set by controls: 0 for no effect and ±100 for the full control effect
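Homogeneous bead-based format: GST-tagged E1A captured on glutathione donor beads, His-tagged CtBP on nickel acceptor beads; compounds precede bead addition by 2 h at 37 °C.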
D2 PAM: human D2 receptor positive allosteric modulation | P14416 | DiscoveRx D2 beta-arrestin cells, luminescence, 90 min; 100% = 57 uM dopamine signal | potentiation, % (no concentration beside the values) | hit rate 0.23% among 360,000; active = potentiation of 50% or more; inconclusive = 30% to 50%; inactive = 30% or less;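 note: compound concentration not given in the record; tested on top of an EC20 dose of dopamine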
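PathHunter D2 cells, attached overnight at 37 deg C, received compound in DMSO plus dopamine at EC20 (50 nM final) for 90 min at 37 deg C. Beta-arrestin recruitment was read as luminescence after 1 h with detection reagent at ambient temperature.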
Numbers without * were called inactive; ? = inconclusive; nt = not tested or not shown.

SMILES	Six1-Eya2 inh	TRPML1 inh	TRPV1 PAM	TRPML1 ag	CtBP-E1A blk	D2 PAM
Cc1noc(C)c1COc1ccc(C(=O)OC(C)C(=O)Nc2ccc(S(=O)(=O)N3CCOCC3)cc2)cc1 (stereo not given)	2	-9	-12	-0.2	23	-9
COc1ccc(CN(C(=O)/C=C/c2ccccc2Cl)C2CCS(=O)(=O)C2)cc1 (stereo not given)	-6	14	16	1.7	-13	-9
COc1ccccc1-c1cc(C(F)(F)F)nc(N2CCN(c3ccccc3)CC2)n1	2	6	-2	-1.0	2	-9
CCOCC(=O)Nc1cccc(NC(C)=O)c1	-14	27	1	0.0	5	-18
Cc1ccc(CC(=O)NCc2ccc(Cl)cc2)cc1	2	4	-11	1.1	nt	-8
CCOC(=O)[C@@H]1[C@H]2COc3ccccc3[C@H]2N2C(=O)N(c3ccc(OC)cc3)C(=O)[C@]12C	1	-9	-11	0.7	5	-4
COc1ccccc1C(=O)Nc1ccnn1C1CCN(CCCC2CCCC2)CC1	-1	10	-1	-0.8	-3	-34
CC(=O)N1CCN(Cc2nc3cc(Cl)ccc3c(=O)[nH]2)CC1	2	-7	-12	-0.2	10	-18
CC1=C(C(=O)OCc2ccccc2)C(c2ccc(Cl)cc2Cl)NC(=O)N1CCCC(=O)O (stereo not given)	-2	6	14	-0.4	4	-5
COc1cccc(C2CC(=O)Nc3cc4c(cc32)OCCO4)c1OC(C)C (stereo not given)	-19	3	-14	0.1	-7	0
O=C1NC[C@H](CCCCN2C[C@H](Cc3ccccc3)N(CCc3ccc(O)cc3)C(=O)C2=O)N(CCc2ccccc2)C1=O	1	nt	nt	-0.1	1	nt
Cc1csc(NC(=O)c2nc3nccc(C)n3n2)n1	2	19	-5	0.0	-3	-1
CCCc1nnc(NC(=O)C2CC(=O)N(C3CCCC3)C2)s1 (stereo not given)	21	9	-4	0.0	0	1
O=c1c2ccccc2ncn1CCOCCOc1cccc(Br)c1	6	-15	?	-0.9	9	-1
O=C1OC(/C(=C\NCc2ccccc2)[N+](=O)[O-])c2ccccc21 (stereo not given)	20	-14	-7	-0.2	-3	-2
O=C1/C(=C/c2coc3ccc(O)cc3c2=O)SC(=S)N1c1ccccc1	-2	33	-3	1.9	nt	5
O=C(c1cccs1)c1coc2ccc(O)c(CN3CCOCC3)c12	0	8	19	-1.3	-20	-5
CCN(CC)C(=O)c1cc2c(=O)oc3ccccc3c2s1	22	-10	29	-0.2	55	-2
CCOC(=O)CSc1nc2ccc(C)cc2n2cnnc12	-2	-9	21	0.5	3	0
CON(C)S(=O)(=O)c1ccc2c(c1)NC(=O)C1CCCN21 (stereo not given)	-2	2	-1	-0.4	-10	-11
O=C(CC(SCCO)c1ccc2c(c1)OCO2)c1cccs1 (stereo not given)	-1	10	-12	4.3	2	2
O=C(c1ccc([N+](=O)[O-])s1)N1CCN(c2ccccc2)CC1	-2	-6	-13	1.6	nt	4
CC(C)Cc1cc(C(=O)NCCc2ccccc2)no1	14	63	-8	-0.4	23	-4
Cc1nc2sc(C(c3cccc(F)c3)N3CCCC(C)C3)c(O)n2n1 (stereo not given)	-1	8	-5	-0.8	2	-26
Cc1cccc2sc(NC(=O)C3CCN(S(=O)(=O)c4cc([N+](=O)[O-])ccc4Cl)CC3)nc12	-13	-6	-3	-0.2	-7	64*
COc1ccc(Cl)cc1NC(=S)NCCc1ccc(F)cc1	-5	11	-33	0.3	5	-53
COc1ccc(NC(=O)c2cc3ccccc3o2)cc1OC	-4	-16	-25	-0.5	-4	-14
CC1CC(C)CN(C(C(=O)NC2CCCCC2)c2ccnc3ccccc23)C1 (stereo not given)	1	nt	nt	-0.5	-6	1
O=[N+]([O-])c1cccc(S(=O)(=O)NCCCN2CCOCC2)c1	2	-14	0	-0.6	0	-3
COc1ccccc1NC(=O)C1CCCN(S(=O)(=O)c2cccc3nsnc23)C1 (stereo not given)	13	1	19	0.2	24	-3
CCOc1ccc(CN2CCN(Cc3nc(C(C)C)cs3)CC2CCO)cc1 (stereo not given)	-2	2	16	-0.4	0	-12
C=CCN1CN(CCc2ccccc2)CNC1=S	3	33	1	0.2	-3	-2
COCCN(Cc1ccccc1)C(=O)C1CCN(C(=O)Nc2ccccc2)CC1	4	13	nt	-0.4	1	-3
O=C(O)c1cc(NS(=O)(=O)c2ccc(NC3CCCCC3)c([N+](=O)[O-])c2)cc(C(=O)O)c1	-3	46	11	0.3	2	-20
CCOC(=O)CCc1c(C)n[nH]c1C	5	3	-2	0.2	5	-5
CC(=O)Nc1ccc2nc(C3CC3)n(Cc3ccc(Cl)cc3)c(=O)c2c1	-18	-27	3	2.6	11	-6

In another format: results already given
compound,Six1-Eya2 inh,TRPML1 inh,TRPV1 PAM,TRPML1 ag,CtBP-E1A blk,D2 PAM
C=CCN1CN(CCc2ccccc2)CNC1=S,3,33,1,0.2,-3,-2
Cc1cccc2sc(NC(=O)C3CCN(S(=O)(=O)c4cc([N+](=O)[O-])ccc4Cl)CC3)nc12,-13,-6,-3,-0.2,-7,64*

Taken from above:
TRPML1 ag, COc1ccccc1C(=O)Nc1ccnn1C1CCN(CCCC2CCCC2)CC1 : -0.8
TRPML1 ag, CC(=O)N1CCN(Cc2nc3cc(Cl)ccc3c(=O)[nH]2)CC1 : -0.2
CtBP-E1A blk, COc1ccc(CN(C(=O)/C=C/c2ccccc2Cl)C2CCS(=O)(=O)C2)cc1 (stereo not given) : -13
TRPML1 inh, CCOC(=O)CCc1c(C)n[nH]c1C : 3
D2 PAM, CC1CC(C)CN(C(C(=O)NC2CCCCC2)c2ccnc3ccccc23)C1 (stereo not given) : 1

Next records.
SMILES	Six1-Eya2 inh	TRPML1 inh	TRPV1 PAM	TRPML1 ag	CtBP-E1A blk	D2 PAM
Cc1c(C(=O)NCc2ccccc2C(F)(F)F)sc(=O)n1Cc1ccc2c(c1)OCO2	-10	nt	nt	0.7	1	-6
COc1ccc(S(=O)(=O)N2CCOCC2)cc1NC(=O)COc1ccc(C(C)=O)cc1OC	?	13	-7	-0.3	?	-3
CCOC(=O)c1ccc(S(=O)(=O)Nc2cc(C(C)(C)C)no2)cc1	2	23	nt	-1.0	8	0
Cc1ccc(Cn2c(SCC(N)=O)nc3c2c(=O)n(C)c(=O)n3C)cc1	0	7	4	-0.1	-8	-6
CCOC1=C2[C@H](c3cccs3)N(S(=O)(=O)c3ccc(C)cc3)C[C@H]2n2c(=O)n(-c3ccccc3)c(=O)n2C1	7	-30	nt	3.5	-19	-5
COc1ccc(N2CCN(S(=O)(=O)CCNC(=O)/C=C/c3ccccc3)CC2)cc1	0	0	-11	-1.3	7	-17
CCC1SC(C)C/C(=N/NC(N)=O)C1C (stereo not given)	-21	-4	6	-0.6	3	-9
O=C(Cc1ccccc1)Nc1scc(-c2ccccc2)c1C(=O)N1CCOCC1	1	-6	10	2.9	-3	-4
CC(=O)N1c2ccccc2C(C)(C)C2CCC(C)CC21 (stereo not given)	0	-10	-1	3.9	0	-4
COc1ccc(C2N(c3ccc(F)cc3)C(=O)C3CCCN32)cc1 (stereo not given)	8	7	9	0.6	-2	-1
CC12CCC(=O)N1C(C(=O)OCc1c(Cl)cccc1Cl)CS2 (stereo not given)	2	10	2	1.9	9	-6
O=C(CN1CCN(c2ccccc2F)CC1)NCc1ccc(Cl)cc1	-2	-2	0	0.1	-1	-10
O=C(NCC(=O)N(c1ccc(F)cc1)C(C(=O)NC1CCCCC1)c1ccncc1)c1ccco1 (stereo not given)	1	3	2	-0.6	5	1
CCOc1cc(/C=N/n2cnnc2)ccc1O	-4	10	-8	-0.4	-7	6
CCC(c1nnnn1C1CCCC1)N(Cc1cccs1)Cc1cc2cccc(C)c2[nH]c1=O (stereo not given)	-20	-21	26	1.8	-15	-10
COc1ccc([C@@H]2CC(=O)c3c(O)cc(O[C@@H]4O[C@H](CO[C@@H]5O[C@@H](C)[C@H](O)[C@@H](O)[C@H]5O)[C@@H](O)[C@H](O)[C@H]4O)cc3O2)cc1O	-9	3	1	0.2	5	7
CCCCN(C(=O)c1cccc(N2C(=O)c3ccccc3C2=O)c1)c1c(N)n(CC(C)C)c(=O)[nH]c1=O	-2	6	0	-0.9	nt	-4
Cc1ccc(-c2nnc(OCCN3CCOCC3)c3ccccc23)cc1	-9	8	-17	0.4	1	-12
COCCNC(=O)C(c1ccc(F)cc1)N(Cc1ccco1)C(=O)CCC(=O)Nc1nccs1 (stereo not given)	-5	-8	28	-0.4	-2	-31
COc1cccc(C(=O)N(Cc2ccco2)c2c(N)n(Cc3ccccc3)c(=O)[nH]c2=O)c1	6	16	1	-0.1	nt	-9
COc1ccc(S(=O)(=O)N(C)C[C@H]2Oc3ccc(NS(=O)(=O)c4ccccc4)cc3CC(=O)N([C@H](C)CO)C[C@@H]2C)cc1	-1	24	nt	0.0	0	-1
CCCc1cc(=O)[nH]c(SCC(=O)Nc2cc3c(cc2C(C)=O)OCO3)n1	-1	0	-14	1.1	-4	-14
COc1ccccc1C(=O)NCCC(=O)NNC(=O)C1COc2ccccc2O1 (stereo not given)	-2	-1	25	-0.2	-4	-1
O=C(N[C@@H]1C/C=C\C[C@@H](CC(=O)N(CCO)Cc2ccccc2)C(=O)N[C@H](Cc2ccccc2)COC1=O)OCC1c2ccccc2-c2ccccc21	-1	-9	nt	0.6	-3	-10
O=C(NC1CC1)C1CCN(Cc2cnn(-c3ccccc3)c2-n2cccc2)CC1	-9	7	-10	0.1	-9	-15
COc1cccc(C(=O)NCC(=O)OCC(=O)NC2CCCCC2)c1	8	-21	nt	0.2	-8	1
CC1(C)Cc2c(sc(NC(=O)C(=O)N3CCCC3)c2C(=O)O)CO1	-4	12	-6	0.5	nt	0
C/C(=N/NC(=O)CNC(=O)C1COc2ccccc2O1)c1ccc([N+](=O)[O-])cc1 (stereo not given)	-11	0	0	0.1	-4	0
O=C(COC(=O)CCCNC(=O)c1ccc(Cl)cc1)NCc1ccccc1Cl	41	10	-1	1.5	-1	2
C=CCNC(=S)NCc1ccc(CNC(=S)NCC=C)cc1	22	-14	-7	0.0	-24	-5
CN(C)C(=O)CCC(=O)N(C)CC1CCCN(CCc2ccc(F)cc2)C1 (stereo not given)	0	-21	?	-0.1	5	-2
CCCCC1=CC2=CC(=O)C(C)(OC(=O)CCc3ccccc3)C(=O)C2=CO1 (stereo not given)	-10	-13	4	1.9	5	-30
Cc1nc2ccc(NC(=O)c3ccc([N+](=O)[O-])cc3[N+](=O)[O-])cc2s1	-10	10	?	-0.1	0	52*
CCn1c(=O)n(CC(=O)N2CC(C)CC(C)C2)c(=O)c2ccccc21 (stereo not given)	-2	-7	-7	-0.2	2	-3
CC(=O)c1ccc(NS(=O)(=O)Cc2ccccc2)cc1	0	7	?	-0.1	90	-5
Cc1cc2ccccc2c(=O)n1CC(=O)NCC(=O)N1CCN(c2ccccc2F)CC1	0	-14	-8	-0.6	6	-7
CN(C)c1ccc(CCc2ccc(N)cc2)cc1	0	-17	nt	1.6	?	-2
FC(F)(F)c1cnc(-c2cnc(-c3ccncc3)nc2)c(Cl)c1	6	16	-7	0.8	3	-2
Cc1ccc(C(=O)Nc2cc3c(oc2=O)CCCC3=O)cc1	2	3	nt	-0.7	4	2
O=C1C2CC=C(Cl)CC2C(=O)N1CC1OCCc2ccccc21 (stereo not given)	4	-25	-10	0.2	4	5
CCCn1nc(C(=O)Nc2ccc3nc(N4CCOCC4)sc3c2)ccc1=O	10	-12	0	0.3	-18	0
COc1ccc(C(=O)Nc2ccc(NC(=O)c3cccc(F)c3)cn2)cc1	0	-6	-2	2.1	-21	0

High-throughput results (PubChem)
